Screens from PubChem BioAssay.
CBX7 AlphaScr: CBX7 inhibition, primary AlphaScreen; AlphaScreen His6-CBX7 / biotin-H3K27me3 peptide binding; hits give low values; normalised signal (fraction of DMSO) (test concentration not listed); 1.1% of 66,000 active; in the data active = normalised signal below about 0.5;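 also: 100 nL library stock added to about 20 µL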
Target sequence (O95931 whole entry, looked up): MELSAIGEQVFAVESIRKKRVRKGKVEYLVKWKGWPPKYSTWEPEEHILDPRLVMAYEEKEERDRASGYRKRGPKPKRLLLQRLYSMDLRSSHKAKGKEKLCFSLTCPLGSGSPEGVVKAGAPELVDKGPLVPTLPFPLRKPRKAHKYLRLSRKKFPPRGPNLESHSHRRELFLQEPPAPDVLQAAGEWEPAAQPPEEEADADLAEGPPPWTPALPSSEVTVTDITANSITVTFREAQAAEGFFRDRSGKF
CBX7 AlphaScr z-score: also measured in CBX7 AlphaScr; calls as there; z-score; measured here: z-score of CBX7 signal; some inactives read as strong as hits; reference of the scale not given here;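 same signal on another scale; lower means less binding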
The depositor's hits bear a star. Some of the compounds tested; rates above refer to the full screens.

SMILES	CBX7 AlphaScr	CBX7 AlphaScr z-score
Oc1cccc(-c2nc(-c3ccccc3)c(-c3cccs3)[nH]2)c1	0.54	-5
CCCC(=O)N1CCN(c2nc(Cc3ccccc3)c3c(c2C#N)CC(C)(C)OC3)CC1	0.74	-2.8
COc1cc(OC)c(NC(=O)CCCNC(=O)Cn2cnc3sc(C)c(C)c3c2=O)cc1Cl	1.1	1
O=C(COc1cc(Cl)ccc1Cl)Nc1nccs1	1	1.4
COc1ccc2c(c1)CCc1c(C(=O)Nc3cc(C)on3)noc1-2	1.1	1.9
COc1ccc(-c2noc(C(C)Oc3ccc(Cl)cc3Cl)n2)cc1OC (configuration not stated)	1.2	0.28
Cc1nc2c(-c3ccc(F)cc3)c(C)nn2c(C)c1CCC(=O)NCCCN1CCCC1=O	1	0.12
O=C(c1ccc2c(c1)N(Cc1c(F)cccc1Cl)C(=O)CS2)N1CCC2(CC1)OCCO2	1.1	1.4
O=C(NCc1ccc(F)cc1)c1nn2c(c1Br)NC(c1cccs1)CC2C(F)(F)F (configuration not stated)	0.97	-0.28
Clc1ccc(Nc2c(-c3ccc(Cl)cc3)nc3cnccn23)cc1	1.2	7.7
Cn1c(SCC(=O)Nc2ccc3c(c2)OCCO3)nnc1-c1c[nH]c2ccccc12	1	0.18
CCCCSCCCNC(=O)c1nc(-c2cccc(C)c2)oc1C	0.77	-1.8
COc1cccc(-n2c(SCC(=O)Nc3nc(C)cs3)nnc2-c2c[nH]c3ccccc23)c1	0.83	-1.1
Cc1cc(C)cc(OCC(=O)NCCc2nc3ccccc3[nH]2)c1	1	0.33
Cc1ccc2cc(CCNS(=O)(=O)c3ccccc3)c(=O)[nH]c2c1	0.93	-0.96
COc1ccccc1NC(=O)Cn1cnc2sc(C(=O)N3CCOCC3)c(C)c2c1=O	1	-0.033
CCOC(=O)c1nnn(-c2nonc2N)c1-c1ccc2c(c1)OCO2	0.99	-0.4
O=C(CCCOc1ccccc1)Nc1ccc(N2CCOCC2)cc1	0.84	-1.7
Cc1ccc(OCC(=O)N(Cc2nc(-c3ccc(Cl)cc3)no2)C(C)C)cc1	0.88	-1.2
O=c1cc(Cc2nnc(SCc3ccccc3F)n2-c2ccccc2)[nH]c(=O)[nH]1	1.1	2.5
O=S(=O)(c1ccc2ccccc2c1)N(CC(O)CN1CCCCC1)c1ccccc1 (configuration not stated)	1	0.027
CN1CCN(c2cc(=O)n(-c3ccccc3Cl)c(=O)[nH]2)CC1	1.1	2.2
Cc1ccc(-c2nc(CS(=O)(=O)CC(=O)NC(C)C34CC5CC(CC(C5)C3)C4)c(C)o2)cc1 (configuration not stated)	1.3	2.6
O=C(c1cc(-c2cccc(Cl)c2)on1)N1CCCCC1	1.1	0.67
COc1ccc(Nc2c(-c3ccccc3)nc3ncccn23)cc1OC	1.1	1.1
O=C1C2C3c4ccccc4C(C(=O)O)(c4ccccc43)C2C(=O)N1c1ccccc1Cl (configuration not stated)	1.1	1.7
CC1CCCCC1NC(=O)Cc1ccc(NC2=NC3CS(=O)(=O)CC3S2)cc1 (configuration not stated)	1.1	0.92
Clc1ccc(-c2cc(-c3ccc(Cl)cc3)n(-c3ccc(Cl)c(Cl)c3)n2)cc1	0.97	-0.39
COc1ccc(OCC(=O)N(Cc2nc(-c3cccc(C)c3)no2)C(C)C)cc1	0.94	-1.4
Cc1c(Cl)cccc1NC(=O)c1cnc2ccccn2c1=O	1	1.1
Cc1ccc(-c2nc(-c3ccc(Cl)cc3)[nH]c2-c2ccccc2)cc1C	0.72	-7
CC(C)(C#CC(O)(c1ccccc1)c1ccccc1)N1CCCCC1	1.3	2.9
O=C(NC1CCCC1)C1c2ccccc2C(=O)N1Cc1ccccc1Cl (configuration not stated)	0.98	-0.23
COc1ccc(C2C(C(=O)Nc3ccc(F)cc3F)c3ccccc3C(=O)N2C)cc1 (configuration not stated)	1.2	1.8
Cc1ccc(CCN2CC(C(=O)N3CCN(c4ccc(F)cc4)CC3)CC2=O)cc1 (configuration not stated)	0.97	-0.94
COc1cccc(-n2c(-c3cccc(F)c3)nc3c(cnn3-c3ccc(C)cc3)c2=O)c1	0.74	-5.1
CCCCNC(=O)CCS(=O)(=O)c1ccc2c(c1)CCN2C(=O)CC	1	0.56
Cc1ccc(-c2nc(Nc3ccccc3)sc2C)cc1	0.99	-0.26
CCn1c(C2CC(=O)N(c3cc(C)cc(C)c3)C2)nc2ccccc21 (configuration not stated)	0.95	-0.24
CCOC(=O)c1c(C)n(-c2ccc(OCC)cc2)c2c1cc(O)c1ccccc12	1	-0.094
CCSc1oc(-c2ccccc2)nc1S(=O)(=O)c1ccccc1	0.95	-0.34
COc1cc(NC(=O)Cn2cc(S(=O)(=O)c3ccc(F)cc3)c(=O)c3ccccc32)cc(OC)c1	0.86	-4.4
Cc1cccc(-n2c(Cc3cc(=O)[nH]c(=O)[nH]3)nnc2SCC(=O)NCc2ccccc2Cl)c1	1	1.1
COc1ccccc1C(=O)Nc1nc2c(s1)CCc1ccccc1-2	1.2	10
Cc1ccc(-c2nn(-c3ccccc3)cc2CO)cc1	1	0.77
Cc1ccc(Cc2c(C)nc3nc(SCC(=O)NC4CCCCC4)nn3c2C)cc1	1.1	1.2
CCOC(=O)c1c(C)n(-c2ccc(I)cc2)c2ccc(O)cc12	0.96	-1.1
Cc1ccc(NC(=O)CCc2c(C)nc3ncnn3c2C)c(Cl)c1	1.1	2.1
CCOC(=O)c1cc(-c2ccc(OCC)cc2)no1	1.1	1.5
COC(=O)CN(c1ccc(OC)cc1)S(=O)(=O)c1ccc2c(c1)n(C)c(=O)c(=O)n2C	0.97	-0.66
CCOc1ccc2nc(NC(=O)C3(S(=O)(=O)c4ccc(C)cc4)CC3)sc2c1	0.98	-0.45
NCCCC(=O)N1CCN(c2ccc3ccccc3n2)CC1	1.1	0.13
Cc1oc(-c2ccccc2F)nc1CN1CCC(C(=O)NCCc2ccc(Cl)cc2)CC1	0.97	-0.7
CCOc1ccc(C(=O)Nc2nc3ccccc3s2)cc1	1	0.29
Cc1ccc(-c2nc(CS(=O)(=O)CC(=O)Nc3ccccc3Br)c(C)o2)cc1	1	0.029
COc1cc(OC)cc(-c2cc3nc(C)c(CCC(=O)NCCc4cccc(C)c4)c(C)n3n2)c1	0.98	-0.38
CCCCN(CCCC)S(=O)(=O)c1ccc(C(=O)Nc2nnc(C3CC3)o2)cc1	0.045*	-1.7*
CCCCCn1c(=O)[nH]c2cc(C(=O)NCc3ccc4c(c3)OCO4)ccc2c1=O	1.1	1.7
Cc1c(C)n(Cc2ccccc2)c2ccc(C(=O)NCCN(C)C)cc12	0.91	-2.4
CCCCC(=O)Nc1ccccc1-c1nc2cc(C)c(C)cc2[nH]c1=O	1.1	1.3

Carrying on.
SMILES	CBX7 AlphaScr	CBX7 AlphaScr z-score
O=c1oc2ccc(Br)cc2cc1-c1nnc(Nc2ccc(F)cc2)s1	0.94	-1.2
CCCOc1ccc(-c2ccc(-c3noc(-c4ccncc4)n3)cc2)cc1	1.1	2.4
CCOC(=O)c1c(NC(=O)c2ccc(C(C)(C)C)cc2)sc2c1CCC(C)C2 (configuration not stated)	1.5	7.4
CCc1ccc(NC(=O)C2c3ccccc3C(=O)N3CCc4cc(OC)c(OC)cc4C23)cc1 (configuration not stated)	1	0.99
CN(Cc1ccccc1)S(=O)(=O)c1ccc(C(=O)Nc2nnc(-c3ccc(F)cc3)o2)cc1	0.14*	-14*
CCOC(=O)c1cc(CC)sc1NC(=O)c1ccccc1	1.5	21
O=C(Nc1nccs1)c1cc2sccc2n1Cc1ccc(Cl)cc1	1	0.28
O=C(NCCCN1CCCC1)c1cc(-c2ccncc2)nc2ccccc12	1.1	0.77
Cc1sc2nc(Cc3ccccc3)nc(N3CCCCCC3)c2c1C	1	1.1
O=C(Nc1nnc(-c2ccc(F)cc2)s1)c1cccc(Cl)c1	1	1.2
CCN1CCCC1CNC(=O)C1CCN(c2cc(C)nc3c(-c4ccc(Cl)cc4)c(C)nn23)CC1 (configuration not stated)	1.8	16
CCOC(=O)CNC(=O)Cn1cnc2sc(C)c(S(=O)(=O)N3CC(C)CC(C)C3)c2c1=O (configuration not stated)	1	0.17
COc1ccc(-c2nc(-c3c(F)cccc3F)no2)c(OC)c1	1	0.0065
CN(C)CCNC(=O)c1ccc2c(c1)N(Cc1ccccc1Cl)C(=O)CS2	1	1.3
COc1ccc(C2(CC(N)=O)CCOC(C)(C)C2)cc1 (configuration not stated)	1	0.3
COc1cccc(NC(=O)CSc2nnc(-c3ccc(C)cc3)o2)c1	0.99	-0.36
Cc1ccc(N2C(=O)CC(NCCc3ccc(Cl)cc3)C2=O)cc1 (configuration not stated)	1.1	1.1
CCC1CCCCN1C(=O)CSc1nnc(-c2cccc(Cl)c2)o1 (configuration not stated)	1.2	2.4
COc1ccc(C(C)=O)cc1CSc1nnc(-c2ccc(Cl)cc2)n1-c1ccccc1	0.97	-0.43
COc1cccc(CNc2cccc3cccnc23)c1O	0.84	-3.5

Quoted at random: 2 entries already listed, in no set order.
SMILES	CBX7 AlphaScr	CBX7 AlphaScr z-score
CN(Cc1ccccc1)S(=O)(=O)c1ccc(C(=O)Nc2nnc(-c3ccc(F)cc3)o2)cc1	0.14*	-14*
COc1ccc(OCC(=O)N(Cc2nc(-c3cccc(C)c3)no2)C(C)C)cc1	0.94	-1.4

Next results follow:
SMILES	CBX7 AlphaScr	CBX7 AlphaScr z-score
Cc1ccc(CN2C(=O)CCC2C(=O)NCC2CCCO2)cc1 (configuration not stated)	1.1	3.2
Cc1oc(-c2ccc(Cl)cc2)nc1CN1CCC(C(=O)NCCc2ccccc2)CC1	0.99	-0.12
Cc1ccc(-c2cc(C(F)(F)F)n3ncc(C(=O)NCc4cccnc4)c3n2)cc1	0.97	-0.4
O=C(CN1C(=O)CC(c2ccccc2)Sc2ccccc21)NC1CCCC1 (configuration not stated)	1.1	1
COc1ccc(-c2nc(SCc3ccccc3)n(C(=O)c3cccs3)n2)cc1	1.4	4
Cc1ccc(C(C)C)c(OCc2nc3ccccc3n2C)c1	1	0.34
CCCNC(=O)c1ccc2c(c1)N(Cc1ccccc1)CCS2	0.81	-0.26
Cn1c(SCc2cccc(F)c2)nnc1-c1c[nH]c2ccccc12	1	0.22
CCn1c(CCNC(=O)c2ccc(OC)c(OC)c2)nc2ccccc21	1.1	0.91
O=C(CCc1ccccc1)NC(c1ccc(Cl)cc1)c1ccc2cccnc2c1O (configuration not stated)	0.62	-1.3
Cc1ccc(Nc2cc(C(=O)NCCc3ccc(Cl)cc3)c3ccccc3n2)cc1C	1	1.4
O=C(NCc1ccc2c(c1)OCO2)c1cnn2c(C(F)(F)F)cc(-c3cccs3)nc12	1	2
COc1cc2ccccc2cc1C(=O)Nc1ccc(Cl)cn1	1.2	1.5
COc1ccc(-c2cc(C(=O)NCCc3ccccc3)no2)cc1	0.95	-0.18
Cc1ccc(C)c(CN2C(=O)CSc3ccc(C(=O)NC4CCCCC4)cc32)c1	0.98	-0.39
c1ccc2oc(SCCN3CCCCC3)nc2c1	1	0.27
NC(=O)C1CCN(C(=O)c2cnn(-c3ccccc3)c2NC(=O)c2ccc(Br)cc2)CC1	0.79	-2.3
O=C(NCCc1ccc(Cl)cc1)C1CC(=O)N(CCc2ccccc2)C1 (configuration not stated)	0.97	-0.82
COc1cccc(NC(=O)c2cn(CC(C)C)c(=O)c3cc(OC)c(OC)cc23)c1	0.84	-4
Cc1onc(-c2ccccc2Cl)c1C(=O)NC1CCCC1	0.95	-1.2
Cc1cc(C)n(-c2nc(-c3ccco3)cc(C(F)(F)F)n2)n1	0.96	-1.1
FC(F)(F)c1cccc(-n2cc(-c3ccccc3)c3c(NCC4CCCO4)ncnc32)c1 (configuration not stated)	0.85	-4.1
CCOC(=O)c1sc2nc(Cc3ccccc3)nc(NCc3ccccc3)c2c1C	0.91	-0.089
Cc1ccc2c(c1)NC(=O)C(CC(=O)NC1CCCC1)O2 (configuration not stated)	1	0.26
COC(=O)c1ccc2c(c1)N(Cc1ccc(Cl)cc1)C(=O)c1ccccc1S2	1	0.22
O=C(CC1(O)C(=O)N(Cc2ccccc2)c2ccccc21)c1ccc(Cl)cc1 (configuration not stated)	0.76	-1.9
O=C(Nc1ccc2c(c1)OCO2)c1cc(-c2ccco2)on1	0.93	-1.8
O=C1Nc2cc(C(=O)N3CC=C(c4ccccc4)CC3)ccc2Sc2ccccc21	0.83	-3.7
Cc1ccnc(-n2c(CCCN3C(=O)c4ccccc4C3=O)nc3ccccc3c2=O)c1	0.98	-0.45
COc1ccc(-c2cc(-c3ccc(F)cc3)nc(N3CCOCC3)n2)cc1	1.1	1.1
Cc1nc2c(C(=O)NCc3cccs3)c[nH]n2c(=O)c1Cc1ccccc1Cl	1	1.4
CC1CCCC(NC(=O)C2CCCN(C(=O)c3cc4sccc4n3C)C2)C1C (configuration not stated)	0.8	-5.9

Of the compounds above, 14 contain a thiophene ring, fused or not.
SMILES	CBX7 AlphaScr	CBX7 AlphaScr z-score
Oc1cccc(-c2nc(-c3ccccc3)c(-c3cccs3)[nH]2)c1	0.54	-5
COc1cc(OC)c(NC(=O)CCCNC(=O)Cn2cnc3sc(C)c(C)c3c2=O)cc1Cl	1.1	1
O=C(NCc1ccc(F)cc1)c1nn2c(c1Br)NC(c1cccs1)CC2C(F)(F)F (configuration not stated)	0.97	-0.28
COc1ccccc1NC(=O)Cn1cnc2sc(C(=O)N3CCOCC3)c(C)c2c1=O	1	-0.033
CCOC(=O)c1c(NC(=O)c2ccc(C(C)(C)C)cc2)sc2c1CCC(C)C2 (configuration not stated)	1.5	7.4
CCOC(=O)c1cc(CC)sc1NC(=O)c1ccccc1	1.5	21
O=C(Nc1nccs1)c1cc2sccc2n1Cc1ccc(Cl)cc1	1	0.28
Cc1sc2nc(Cc3ccccc3)nc(N3CCCCCC3)c2c1C	1	1.1
CCOC(=O)CNC(=O)Cn1cnc2sc(C)c(S(=O)(=O)N3CC(C)CC(C)C3)c2c1=O (configuration not stated)	1	0.17
COc1ccc(-c2nc(SCc3ccccc3)n(C(=O)c3cccs3)n2)cc1	1.4	4
O=C(NCc1ccc2c(c1)OCO2)c1cnn2c(C(F)(F)F)cc(-c3cccs3)nc12	1	2
CCOC(=O)c1sc2nc(Cc3ccccc3)nc(NCc3ccccc3)c2c1C	0.91	-0.089
Cc1nc2c(C(=O)NCc3cccs3)c[nH]n2c(=O)c1Cc1ccccc1Cl	1	1.4
CC1CCCC(NC(=O)C2CCCN(C(=O)c3cc4sccc4n3C)C2)C1C (configuration not stated)	0.8	-5.9
